# Screens deposited in PubChem by National Center for Advancing Translational Sciences (NCATS).
# SmPrx2 inh – blocks S. mansoni peroxiredoxin 2 enzymatic activity. 65,000 tested, 0.07% active. S. mansoni Prx2 activity coupled to TGR/GSH (TGR is thioredoxin glutathione reductase), NADPH fluorescence loss, qHTS; some inactives read as strong as hits. AID 448. Potency, µM; active means full or partial inhibition curve with a strong effect at the top dose; inconclusive means weaker partial or single-point curve; inactive means no accepted curve; further: series up to 57 µM; many of its hits are not listed in these tables
#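 Coupled assay in which S. mansoni TGR passes NADPH reducing equivalents via glutathione to Prx2, which reduces H2O2. Compounds were preincubated 15 min at room temperature with 25 nM TGR/50 nM Prx2 mix. Kinetic NADPH fluorescence loss (ex 365/em 450 nm) was monitored.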
# Anthrax LT inh – inhibitors of anthrax lethal toxin internalization; 70,000 tested, 0.67% active; AID 912; Potency, µM (highest dose often 40 µM), for inactives: at the highest dose activity change, negative = inhibition, usual class: inhibitors; Cells, anthrax lethal toxin internalization, FRET ratio (460/530); active = well fitted falling ratio curve with the 530 nm signal flat; inconclusive = other ratio curves, or a change in one channel alone; inactive = flat curves in the ratio and both channels; the % refers to the ratio; further: on the % scale 0 is the no-effect control and ±100 the full control effect; nearly all actives have a fitted effect of over 50% in size; tested in ME-180 cells; beta-lactamase reporter
# Starred values were filed as active, the others as inactive; ? = inconclusive; . = no result given; & = joins results of further samples; [ ] = dose if it differs, or a comment. Potency means the concentration at half of the fitted maximal effect.
smiles	SmPrx2 inh	Anthrax LT inh
CC(=O)c1ccc(OCC(O)CN2CCOCC2)cc1 (configuration not stated)	>57	-14%
CCc1c(C)nc2ncnn2c1N1CCC(C(=O)N2CCN(c3ccccc3)CC2)CC1	>57	2%
CN1C[C@H](C(=O)N[C@]2(C)O[C@@]3(O)[C@H]4CCCN4C(=O)[C@@H](Cc4ccccc4)N3C2=O)C[C@H]2c3cccc4[nH]cc(c34)C[C@@H]21	>57	-8%
Cn1cccc1C(=O)N1CCC2(CCN(C(=O)Nc3ccccc3)CC2)CC1	>57	?
COc1ncc2nc(-c3cn(C)c4ccccc34)c(=O)n(C)c2n1	>57	?
CCS(=O)(=O)N1CCCC(C(=O)NC2CCCC2)C1 (configuration not stated)	>57	0%
O=C(NCc1cccs1)C(Cc1ccccc1)NS(=O)(=O)c1cccs1 (configuration not stated)	>57	?
O=c1n(Cc2ccccc2Cl)c2sc3c(c2c2ncnn12)CCCC3	>57	7%

# The list continues.
smiles	SmPrx2 inh	Anthrax LT inh
CCOc1ccc(N(CC(=O)O)S(=O)(=O)c2ccc(OC)c(OC)c2)cc1	.	-8%
COc1ccc(C(=O)n2nnc3ccccc32)cc1Br	>57	-3%
CC(=O)N1CCC2(CC1)CN(Cc1ccc(C#N)cc1)C2	>57	-28%
N#Cc1cccc(NC(=O)N2CC3(CCN(C(=O)c4cc(C(F)(F)F)cc(C(F)(F)F)c4)CC3)C2)c1	>57	?
O=C(O)c1ccccc1N[C@H](c1ccccc1)c1ccc2cccnc2c1O	.	-6%[8 µM]
C=CCn1c(Cc2ccc(OC(C)C)c(Cl)c2)nnc1SCC(N)=O	>57	-12%
O=C(CCN1C(=O)C2C3C=CC(C3)C2C1=O)NCCc1ccccc1Cl (configuration not stated)	>57	1%
COc1ccc(OC)c(C2=NOC(C(=O)NCCN3CCOCC3)C2)c1 (configuration not stated)	>57	-2%

# Next section
smiles	SmPrx2 inh	Anthrax LT inh
CN(c1ccccc1C(=O)N1CCc2ccccc2C1)S(C)(=O)=O	>57	-9%
CCCCN(CCCC)CCC(O)c1cc2c(Cl)cc(Cl)cc2c2cc(C(F)(F)F)ccc12 (configuration not stated)	>57	4%[3.58 µM]
CCOC(=O)CNC(=O)CSc1nc2nc(C)c(Br)cc2[nH]1	>57	13%
O=c1[nH]c2ccccc2c2nc3ccccn3c12	>57	20%
COc1cc(/C=N/n2cnnc2)ccc1OC(=O)c1cccnc1	.	20%
C[n+]1cnn2c1SCC1(COC1)C2	>57	?
O=C1CN(C(=O)CN2CCCC2)C(c2ccccc2)c2cc(Br)ccc2N1 (configuration not stated)	>57	-8%
CCCCCCN1Cc2ccccc2C1	>57	4%

# Other compounds
smiles	SmPrx2 inh	Anthrax LT inh
CCc1cc2c(=O)c(-n3cnc4ccccc43)coc2cc1O	>57	-1%
CC(=O)c1c(C)[nH]c(C(=O)NCc2ccccn2)c1C	>57	-4%
CCN(CC)C(=O)C1CCN(S(=O)(=O)c2ccc(C3CNC(=O)C3)cc2)CC1 (configuration not stated)	>57	14%
COc1ccc2cc(CN(CCCN3CCOCC3)Cc3nnnn3C3CCCC3)c(=O)[nH]c2c1	>57	-18%
Cc1ccc(CNC(=O)c2coc(=O)c3ccccc23)o1	>57	5%
CCCN1CCN(C(=O)C2CCN(S(=O)(=O)c3ccc4c(c3)oc(=O)n4C)CC2)CC1	>57	?
COc1cccc(NS(=O)(=O)c2c(C)cc(C)cc2C)c1	.	?
COC(=O)CSc1nnc2c3c4c(sc3nc(-n3nc(C)cc3C)n12)COC(C)(C)C4	>57	.

# Additional compounds:
smiles	SmPrx2 inh	Anthrax LT inh
COc1cccc(OC)c1OCCCSc1nc(C)cc(=O)[nH]1	>57	-3%
CN(C(=O)CSc1nnnn1-c1ccccc1)C1CCCCC1	>57	-1%
CCOCCCNC(=O)C(c1ccc(Cl)cc1)N1CCN(C(=O)c2ccco2)CC1 (configuration not stated)	>57	-17%
Cc1c(NC(=O)CN2CC(C)OC(C)C2)c(=O)n(-c2ccccc2)n1C (configuration not stated)	>57	9%
COc1c(Cl)cc(-c2noc(C)c2C(=O)NC(C)C)cc1Cl	>57	-15%
CCOC(=O)CC1C(=O)NCCN1C(=O)Nc1ccccc1 (configuration not stated)	>57	15%
CN(C)S(=O)(=O)c1ccc(NC(=O)c2cc3ccccc3o2)cc1	>57	-20%
[O]=[Cr](=[O])([OH])[O][Cr](=[O])(=[O])[OH]	.	25%&7%&4%

# Additional records.
smiles	SmPrx2 inh	Anthrax LT inh
COCCn1c(-c2ccc(OC)cc2)cnc1N	>57	-2%
NCCOB(c1ccccc1)c1ccccc1	>57	?
N#Cc1c(N)nc2c(c1-c1ccncc1)CCCC2	>57	-9%
Cn1c2ccccc2c2nnc(SC3CCOC3=O)nc21 (configuration not stated)	>57	11%
Cc1ccsc1CNn1cnnc1SCc1ccccc1F	>57	?
O=c1cc(NCC2CCCO2)[nH]c(=O)n1-c1ccc(Cl)cc1 (configuration not stated)	>57	-12%
CCCS(=O)(=O)N1CCC(C(=O)N2CCOCC2)CC1	>57	6%
Cc1ccccc1Cn1cc(NC(=O)c2cc3nc(-c4ccco4)cc(C(F)(F)F)n3n2)cn1	>57	5%

# Additional entries:
smiles	SmPrx2 inh	Anthrax LT inh
O=C(CSc1nnc(-c2cccs2)o1)NCC1CN(Cc2ccccc2)CCO1 (configuration not stated)	>57	8%
CCS(=O)(=O)N1CCN(Cc2ccncc2)CC1	>57	1%
C=CCn1c(SCC(=O)c2ccc(OC)cc2)nnc1-c1cc2cccc(OC)c2o1	>57	9%
CCCc1cc(=O)[nH]c(SCC(N)=O)n1	>57	-6%
C[N+](C)(C)c1nc(N)nc2c1ncn2[C@H]1O[C@@H](CO)[C@@H](O)[C@H]1O	>57	11%[8 µM]
CCN(CC)S(=O)(=O)c1cccc(C(=O)OCC(=O)N2CC(=O)Nc3ccccc32)c1	>57	3%
Cc1cccc2cc(C#N)c(NCCNC(=O)NC3CCCCC3)nc12	>57	5%
CN(C)S(=O)(=O)N(CC(=O)N1CCOCC1)c1ccccc1	>57	-6%

# More structures
smiles	SmPrx2 inh	Anthrax LT inh
COc1cccc(NC(=O)CSCc2n[nH]c(=O)[nH]2)c1	>57	3%
COc1cccc(C2=CC(c3ccc(OC)c(OC)c3OC)n3nnnc3N2)c1 (configuration not stated)	>57	11%
CCC(C)NC(=O)CS(=O)Cc1nc(-c2ccccc2C)oc1C (configuration not stated)	>57	-11%
COCCCNc1nc2c(c(=O)[nH]c(=O)n2C)n1CCCc1ccccc1	>57	-3%
O=C(COc1ccccc1O)c1cccs1	>57	4%
CC(C)[C@H](NC(=O)NCc1cccs1)C(=O)O	>57	-9%
CCCCN(C)C(=O)CCC(=O)Nc1ccc2nc(N3CCOCC3)cc(C)c2c1	>57	-5%
O=C(NC1CCCCCCC1)C1=COCCO1	>57	?

# Continued:
smiles	SmPrx2 inh	Anthrax LT inh
CNc1nc(-c2ccccc2OC)nc2ccccc12	>57	?
Cc1ccc2c(c1)N(CCC(=O)NCCN1CCOCC1)C(=O)CO2	>57	-2%
O=C(Cc1cccs1)N(c1ccccc1)C1C=CS(=O)(=O)C1 (configuration not stated)	>57	-3%
CC1CN(Cc2nc3c(c(=O)n(C)c(=O)n3C)n2CCCO)CC(C)O1 (configuration not stated)	>57	1%
NS(=O)(=O)c1ccc(NC(=O)COC(=O)CCNC(=O)NC23CC4CC(CC(C4)C2)C3)cc1	>57	?
Cc1cccc(C)c1NC(=O)C1(NC(=O)c2cnccn2)CCCCC1	>57	1%
COc1cc(OC)cc(C(=O)N2CCN(C(=O)COc3ccc4ccccc4c3)CC2)c1	>57	-6%
CCCCOC(=O)NCN1C(=O)C2C3C=CC(C3)C2C1=O (configuration not stated)	>57	-5%

# The list goes on.
smiles	SmPrx2 inh	Anthrax LT inh
O=C(C1CC1)N(Cc1ccco1)c1nc(-c2ccccc2)cs1	>57	?
CN=C1SC(CC(=O)Nc2cccc(Cl)c2Cl)C(=O)N1C (configuration not stated)	>57	5%
O=C(Nc1ccc(N2CCCCC2)c(Cl)c1)c1ncn[nH]1	>57	-2%
COc1cc(OC)cc(C(=O)N2CCN(C(=O)c3cccc(F)c3)CC2)c1	>57	5%
COc1ccc(NC(=O)CSc2nccn2-c2ccccc2)cc1	>57	-5%
CC(C)(C)c1n[nH]c(=S)n(N)c1=O	>57	5%
O=C(NCc1ccccc1)c1cccc(OCC(=O)N2CCN(C(=O)c3ccco3)CC2)c1	>57	-1%
Cn1ncc2c(Nc3cccc(Cl)c3)nc(Nc3cccc(Cl)c3)nc21	>57	?

# More records.
smiles	SmPrx2 inh	Anthrax LT inh
COc1ccc2c(CC(=O)N3CCN(S(=O)(=O)c4cccs4)CC3)coc2c1	>57	-15%
Cn1c(=O)c(-c2ccc(Cl)cc2)nc2cnc(Oc3cccc(Cl)c3)nc21	>57	?
CCOC(=O)Cn1c(=O)oc2cc(S(=O)(=O)NCc3cccs3)ccc21	>57	-1%
COCCNc1nc(C)nc2c1nc(-c1ccccc1)n2CCN1CCCC1	.	2%
CCCOc1ccc(N2C(=O)CC(NCc3ccncc3)C2=O)cc1 (configuration not stated)	>57	15%
N#Cc1cccc(-n2nnnc2-c2ccc3c(c2)OCO3)c1	>57	-9%
CCc1ccc(CN(C)CCc2ccccn2)cc1	>57	-17%
Brc1ccc2[nH]ncc2c1	>57	-6%

# Next section
smiles	SmPrx2 inh	Anthrax LT inh
CCOC(=O)N1CCN(C(=O)CCc2ccc(S(=O)(=O)NCCc3ccccc3)cc2)CC1	>57	?
O=c1c2ccccc2[nH]c(=S)n1C1CCCCC1	>57	-9%
CCN1CCN(Cc2nnnn2C(C)(C)C)CC1	>57	-8%
CC(=O)c1cn(CC(=O)NCC2CCCO2)c2ccccc12 (configuration not stated)	>57	-8%
COc1ccc(CCNC(=O)C2(C)CCC(=O)N2CCC(C)C)cc1OC (configuration not stated)	>57	-21%
CC(C(=O)Nc1ccccc1-c1ccccc1)N1CCOCC1 (configuration not stated)	>57	0%
CCc1c(O)nc(SCC(=O)Nc2ccc3c(c2)CCC3)[nH]c1=O	>57	-5%
COc1ccc(C(=O)Nc2nc3cc(OC)c(OC)cc3c(=O)[nH]2)cc1	>57	-1%

# (continued)
smiles	SmPrx2 inh	Anthrax LT inh
O=C(c1cccnc1)N1CCCc2ccccc21	.	-11%
C/C(=C\C1CCCCC1)C(NC(=O)c1ccc(C(F)(F)F)cc1)c1ccc(-c2ccccc2)cc1 (configuration not stated)	>57	?
CCOc1ccc(N(CCC#N)S(=O)(=O)c2ccc(OC)cc2)cc1	>57	-7%
O=C(CN1CCN(c2ncc(C(F)(F)F)cc2Cl)CC1)NC(=O)NCc1ccccc1	>57	-2%
O=c1c(-c2cc(F)cc(F)c2)nc2cnc(N3CCOCC3)nc2n1C1CC1	>57	?
O=c1c2[nH]c3ccccc3c2ncn1Cc1ccncc1	>57	?
O=C(Nc1nnc(C2CCCC2)s1)C1CCC1	>57	-6%
COP(=S)(OC)Oc1ccc([N+](=O)[O-])cc1	.	19%

# A draw from above in order of molar mass, smallest number first:
smiles	SmPrx2 inh	Anthrax LT inh
O=c1c2[nH]c3ccccc3c2ncn1Cc1ccncc1	>57	?
COc1ccc(C(=O)Nc2nc3cc(OC)c(OC)cc3c(=O)[nH]2)cc1	>57	-1%
CCOc1ccc(N(CCC#N)S(=O)(=O)c2ccc(OC)cc2)cc1	>57	-7%
O=c1c(-c2cc(F)cc(F)c2)nc2cnc(N3CCOCC3)nc2n1C1CC1	>57	?
O=C(CN1CCN(c2ncc(C(F)(F)F)cc2Cl)CC1)NC(=O)NCc1ccccc1	>57	-2%
C/C(=C\C1CCCCC1)C(NC(=O)c1ccc(C(F)(F)F)cc1)c1ccc(-c2ccccc2)cc1 (configuration not stated)	>57	?

# The listing continues:
smiles	SmPrx2 inh	Anthrax LT inh
COC(=O)c1ccccc1NC(=O)NCc1cccnc1	>57	10%
COCCNC(=O)CN(c1ccc(C)cc1)S(=O)(=O)c1ccccc1	>57	-3%
Cc1noc(C)c1-c1nccc(-n2ccnc2)n1	>57	5%
c1ccc(Oc2cccc(CN3CCOCC3)c2)cc1	.	1%
Nc1cc(C(=O)O)[nH]c(=O)n1	>57	-13%[8 µM]
Oc1ccccc1Cn1c(-c2ccccc2O)nc2ccccc21	.	?
CCOC(=O)c1ccc(Oc2nc(OC)nc(N(C)C)n2)cc1	.	-11%
Cc1cnc(C(=O)Nc2cccc3ncccc23)cn1	>57	5%

# (next part)
smiles	SmPrx2 inh	Anthrax LT inh
CCCCC(=O)NCCc1c(Cc2ccccc2)[nH]c2ccccc12	>57	?
COCCCN(C(=O)Nc1ccc(C)c(C)c1)C(C)c1ccccn1 (configuration not stated)	>57	-22%
COc1cccc(CNc2ccc(S(=O)(=O)Nc3nccs3)cc2)c1O	>57	-9%
C=CCn1c(SCC(=O)c2ccc(O)c(O)c2)nnc1-c1ccccc1OC	>57	3%
C[C@@H]1CN2[C@H](c3ccc(Br)cc3)[C@H](C)CC[C@H]2C(=O)O1	.	-5%[8 µM]
CC(Oc1ccc(Cl)cc1Cl)C(=O)Nc1ccncc1 (configuration not stated)	>57	7.9µM*
Cc1ccc(-n2c(SCn3nnc4ccccc4c3=O)nnc2-c2cccnc2)c(C)c1	>57	2%
CC1(C)Cc2c(C#N)c(NC3CCCCC3)nc(-c3ccco3)c2CO1	>57	?
O=C1CSc2ccccc2N1Cc1ccccc1F	>57	-2%
CC(C)NC(=O)c1ccc2c(c1)nnn2C	>57	4%
CN(C)S(=O)(=O)c1ccc(S(=O)(=O)N(Cc2ccccn2)Cc2ccco2)cc1	>57	-6%

# Some of the compounds tested, so the mix of outcomes need not match the whole.
